RecA intein inh: Mtb RecA intein splicing inhibition. P9WHJ3. cell-free RecA intein splicing, fluorescence. inhibition, %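 (about 9 µM by stock and volumes)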. hit rate 0.75% among 290,000. AID 2221; in the data active = inhibition above about 30%; inconclusive = no clear call, values can overlap the other calls;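 note: 0% = vehicle wells and 100% = reference inhibitor control wells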
Target sequence (P9WHJ3 whole entry, looked up): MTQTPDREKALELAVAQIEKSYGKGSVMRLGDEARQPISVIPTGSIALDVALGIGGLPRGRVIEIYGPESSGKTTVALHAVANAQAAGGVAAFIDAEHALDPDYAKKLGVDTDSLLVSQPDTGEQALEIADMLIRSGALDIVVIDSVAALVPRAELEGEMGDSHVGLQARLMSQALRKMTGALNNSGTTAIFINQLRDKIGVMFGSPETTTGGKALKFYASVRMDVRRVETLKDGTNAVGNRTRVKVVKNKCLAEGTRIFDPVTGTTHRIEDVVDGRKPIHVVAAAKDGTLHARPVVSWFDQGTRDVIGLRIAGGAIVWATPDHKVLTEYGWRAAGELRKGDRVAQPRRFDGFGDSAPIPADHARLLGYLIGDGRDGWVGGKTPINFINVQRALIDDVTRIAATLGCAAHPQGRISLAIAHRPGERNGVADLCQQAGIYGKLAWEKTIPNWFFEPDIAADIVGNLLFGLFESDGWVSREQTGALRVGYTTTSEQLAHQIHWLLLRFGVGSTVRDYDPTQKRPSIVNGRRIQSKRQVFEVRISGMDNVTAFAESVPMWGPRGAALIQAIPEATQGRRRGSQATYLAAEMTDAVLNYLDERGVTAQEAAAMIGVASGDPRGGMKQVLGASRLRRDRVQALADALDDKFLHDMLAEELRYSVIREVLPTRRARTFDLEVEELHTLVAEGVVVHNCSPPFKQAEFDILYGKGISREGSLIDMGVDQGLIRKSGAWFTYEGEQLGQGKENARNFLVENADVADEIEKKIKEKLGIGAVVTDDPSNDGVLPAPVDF
YopH PTP inh: blocks Yersinia enterocolitica YopH tyrosine phosphatase; AID 898; inhibition, %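 (about 10 µM by stock and volumes)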; fluorescence Ex485/Em525; hit rate 0.16% among 140,000;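 active = inhibition of 50% or more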;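 note: controls were vehicle for no effect and minimum signal wells for full effect; inactives centre near -20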
Arbovirus anti: antivirals against arbovirus infection; inhibition, % at 10 µM; hit rate 0.37% among 200,000; arbovirus infection cell-based antiviral screen;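 active = inhibition from about 30%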;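 note: bluetongue infection of BSR cells; cell survival read as ATP light after 72 h; 0% = infected wells without compound and 100% = uninfected wells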
Mtb growth: M. tuberculosis H37Rv growth inhibitors, H37Rv strain (AID 1626); inhibition, % at 10 µM; hits with a dose series show IC50 in µM; hit rate 0.95% among 220,000; M. tuberculosis H37Rv growth inhibition; higher % means a stronger effect;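 active = confirmed in a dose series; inconclusive = inhibition above 80% but not taken into the dose series; inactive = below 80% or under 30% at every dose of the series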;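 note: bacteria incubated seven days before Alamar blue readout; 0% = bacteria only wells and 100% = bacteria with antibiotic wells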
Mtb betalactam: beta-lactam sensitization of Mtb H37Rv. AID 434955. inhibition, % at 25 µM. hit rate 0.27% among 330,000. M. tuberculosis H37Rv growth with meropenem, percent inhibition; hits of this screen are not shown here;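 active = about 74% or more and at least 40 points above the plate without the antibiotic, then above 30% in a dose series; inconclusive = first-round hits that could not be retested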;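 note: growth measured after seven days incubation then overnight dye step; 0% = bacteria only wells and 100% = bacteria with antibiotic; twin plates without the antibiotic show which effects depend on it; some results filed as inactive read as strong as hits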
The depositor's hits bear a star; u = inconclusive; x = no result given. These rows are one share of the data, so the mix of outcomes need not match the whole.

molecule,YopH PTP inh,RecA intein inh,Arbovirus anti,Mtb growth,Mtb betalactam
Cc1cc(C)c(OCC(=O)Nc2nnn(C)n2)c(Br)c1,8.1,-1.1,2.1,-6.2%,-7.7
Cc1ccc(OCCC(=O)OCC(=O)Nc2ccc(F)cc2)cc1,x,-0.4,x,x,-3.8
CC(=O)N(CN1C(=O)c2ccc([N+](=O)[O-])cc2C1=O)c1ccc(F)cc1,-28.4,-5.9,4.7,-11.8%,2.5
CCCn1c(=O)c(Br)cn(-c2ccccc2C)c1=O,x,0.6,x,-3.1%,-0.6
CCOC(=O)C1(Cc2cccc(OC)c2)CCN(CC2CC=CCC2)CC1 (stereo unspecified),x,-0.9,-11.1,-3.8%,5.6
CC1=C(C(=O)OCc2ccccc2)C(c2ccccc2)NC(=O)N1CCCCCC(=O)O (stereo unspecified),-18.9,0.8,6.5,-15.2%,-3.5
COC(=O)C[C@H]1c2ccccc2S(=O)(=O)N1Cc1ccc(OC)cc1,x,0.0,x,-0.2%,-6.2
CCOc1ccc(S(=O)(=O)N2CCN(C(=O)c3cccnc3)CC2)cc1,x,-3.5,x,x,-3.3
O=S(=O)(NCc1ccncc1)c1ccccc1,-3.7,-1.4,5.7,-6.8%,-2.2
CCOC(=O)c1c(N)n(-c2ccc(N)cc2)c2nc3ccccc3nc12,-30.3,2.4,0.8,0.9%,1.3
COc1ccc(C(=O)NC(Cc2ccccc2)c2ccc3c(c2)OCCCO3)cc1 (stereo unspecified),-9.1,3.8,-3.1,-2.1%,-1.1
CCOC(=O)C1=C(C)N(c2ccc(OC)cc2)C(=O)/C1=C\c1cccs1,-21.0,0.6,1.8,3.9%,4.1
COC(=O)Cc1ccc(NC(=O)c2ccccc2Br)cc1,x,6.5,6.4,3.9%,-1.8
CCOc1ccc(C(=O)N/N=C/c2ccccc2[N+](=O)[O-])cc1,-5.5,-2.8,-9.4,-0.6%,5.5
O=C(O)CCC(=O)Nc1ccc(Br)cc1C(=O)c1ccccc1,x,0.0,x,0.0%,2.7
O=C(NC(=S)Nc1ccc(CN2CCCCC2)cc1)c1cccc(OCc2ccccc2)c1,x,27.8,-20.3,u,84.2
Cc1ccc(NC(=O)c2cc(-c3cc(Cl)ccc3O)n[nH]2)cc1C,x,1.7,x,x,-2.7
Cc1cc(N2CCOCC2)nc2ccc(NC(=S)NC(C)C)cc12,x,-11.7,x,x,11.2
CN(C)CCCN(C(=O)c1ccc([N+](=O)[O-])o1)c1nc2cc3c(cc2s1)OCO3,x,-14.0,x,x,5.5
COc1ccc(S(=O)(=O)NCCC(=O)Nc2ccc(C)cc2)cc1,x,0.0,x,x,3.5
Cc1ccc(Nc2nc(-c3cccnc3)nc3ccccc23)cc1,x,1.4,x,8.9%,1.0
CC(=O)NCC1CCCN(c2nc3nonc3nc2N(C)Cc2ccccc2)C1 (stereo unspecified),x,-0.1,0.4,-1.3%,1.6
S=C(NCc1ccco1)Nc1ccc2c(c1)OCCO2,x,1.1,0.9,-5.1%,12.8
CCCCN1C(N)=NC[C@@H]1Cc1ccccc1,x,-4.7,x,1.3%,-9.0
O=C1CC2(CCN(C(=O)c3ccccc3Br)CC2)Oc2ccccc21,x,-0.9,x,x,-12.1
CNc1nc(-c2ccccc2)cc(C(F)(F)F)c1C#N,-25.8,-0.5,-2.9,-3.1%,2.6
Nc1ccc(C(=O)NCC2(c3ccccc3)CCCC2)cc1,x,1.4,-1.3,-0.9%,-2.8
O=C1C2C3CCC(C3NCc3ccccc3)C2C(=O)N1Cc1ccccc1 (stereo unspecified),-40.4,-1.8,-16.5,-0.2%,-0.9
C/C(=N\NC(=O)c1ccc(O)cc1)c1cccc(NC(=O)c2ccccc2C)c1,x,0.1,x,x,-10.7
Cc1ccc(S(=O)(=O)N2CCC(C(=O)N3CCC4(CC3)OCCO4)CC2)cc1,-29.3,-0.5,4.5,1.9%,-9.7

For reference, two of the compounds above.
molecule,YopH PTP inh,RecA intein inh,Arbovirus anti,Mtb growth,Mtb betalactam
Cc1cc(C)c(OCC(=O)Nc2nnn(C)n2)c(Br)c1,8.1,-1.1,2.1,-6.2%,-7.7
Cc1ccc(OCCC(=O)OCC(=O)Nc2ccc(F)cc2)cc1,x,-0.4,x,x,-3.8

Filtered by structure, those above containing a nitro group on carbon (three)
molecule,YopH PTP inh,RecA intein inh,Arbovirus anti,Mtb growth,Mtb betalactam
CC(=O)N(CN1C(=O)c2ccc([N+](=O)[O-])cc2C1=O)c1ccc(F)cc1,-28.4,-5.9,4.7,-11.8%,2.5
CCOc1ccc(C(=O)N/N=C/c2ccccc2[N+](=O)[O-])cc1,-5.5,-2.8,-9.4,-0.6%,5.5
CN(C)CCCN(C(=O)c1ccc([N+](=O)[O-])o1)c1nc2cc3c(cc2s1)OCO3,x,-14.0,x,x,5.5

Two of these compounds, set out differently.
The line under a structure holds: YopH PTP inh | RecA intein inh | Arbovirus anti | Mtb growth | Mtb betalactam
Cc1ccc(Nc2nc(-c3cccnc3)nc3ccccc23)cc1
  x | 1.4 | x | 8.9% | 1.0
O=C1C2C3CCC(C3NCc3ccccc3)C2C(=O)N1Cc1ccccc1 (stereo unspecified)
  -40.4 | -1.8 | -16.5 | -0.2% | -0.9

(list continues)
molecule,YopH PTP inh,RecA intein inh,Arbovirus anti,Mtb growth,Mtb betalactam
COc1ccc(C(=O)NCCn2cc(SCC(=O)Nc3nnc(C)s3)c3ccccc32)cc1,-32.1,5.4,-4.3,0.3%,x
CCCCN1CC2([N+](=O)[O-])C=CC(=O)C([N+](=O)[O-])(C1)C2CC(=O)c1ccccc1 (stereo unspecified),-32.5,1.8,0.7,5.5%,0.8
CCOC(=O)CNc1nc(Cl)nc(Nc2ccc(C)cc2)n1,x,2.5,x,6.0%,-6.5
Cc1ccc2c(c1)[nH]c1c(=O)n(CCN3CCCCC3)cnc12,-27.3,-0.4,1.7,-2.3%,-8.9
OC(c1ccc(Cl)cc1)C(O)c1nc2ccccc2[nH]1 (stereo unspecified),-12.3,0.6,3.0,-2.0%,-1.1
Cn1c(=O)c2c(ncn2CC(=O)N2CCOCC2)n(C)c1=O,-27.8,-1.3,-2.5,-7.4%,-1.1
COc1ccc(S(=O)(=O)NC2CCCC2)cc1C(N)=O,x,-0.2,x,x,-1.9
CC(C)CC(=O)OCc1cn(-c2ccccc2)nn1,-27.1,-1.5,7.4,-2.0%,-8.8
CC(NC(=O)c1ccccc1)c1nnc(SCC(=O)NC2=NCCS2)n1C (stereo unspecified),x,1.7,x,x,-1.2
O=C(/C=C/c1ccccc1)NNC(=O)C1CC1,-18.7,3.6,7.0,-5.8%,-12.0
COCCNC(=O)Cc1c(C)c2c(cc(C)c3c(C)coc32)oc1=O,x,-1.1,x,x,-10.8
Cc1oc(-c2ccc(-c3ccccc3)cc2)nc1CN(C)C1CCOC1 (stereo unspecified),x,2.1,-27.8,11.7%,-6.7
COCCCn1c(SCC(=O)NC(C)(C)C)nnc1-c1ccccc1,-14.2,0.5,4.0,x,-8.4
Cc1ccc(-c2csc(Nc3ccc(S(N)(=O)=O)cc3)n2)o1,x,1.5,2.8,-6.8%,-2.8
CCOc1ccc(C(=O)Nc2nnc(C3=COCCO3)o2)cc1,x,-0.7,x,x,95.5
N#CC(C#N)=C(N)Nc1cccc(Cl)c1,x,-1.7,x,11.3%,-10.2
COc1ccc(OC)c(/C=N/NC(=O)c2cnccn2)c1,x,1.7,x,-0.4%,4.5
CCOC(=O)/C=C/C(=O)Nc1ccc(S(=O)(=O)Nc2nccs2)cc1,x,0.0,x,x,93.3
COc1cnc(SCc2ccc(Cl)c(Cl)c2)nc1Cl,-19.5,4.8,5.3,8.4%,1.3
CCOC(=O)C1CCN(S(=O)(=O)c2ccc(-c3ccc(=O)[nH]n3)o2)CC1,x,-2.8,x,x,-11.5
CCCCN(CCCC)c1nc2ccccc2nc1C(C#N)C(=O)NCCCOC (stereo unspecified),-34.1,-41.3,-9.9,0.0%,-3.4
COc1cccc(-c2nc(-c3ccc4c(c3)-c3ccccc3S4(=O)=O)c(-c3ccccc3)[nH]2)c1OC,-5.7,-49.8,0.4,4.6%,62.6
CCCCCOC(=O)c1cc(=O)[nH]c2ccccc12,-41.9,-1.5,-1.4,1.3%,-5.9
Cc1ccnc(NC(=O)CCC(=O)N(CC(=O)NC2CCCCC2)c2cccc(C)c2C)c1,3.1,1.8,1.2,6.0%,-4.3
CCCCNC(=O)c1onc(CSc2cccc3ccccc23)c1C(=O)O,-80.2,1.9,15.4,-12.1%,50.0
CC(=O)c1cnc(N2CCCCC2)nc1C,-44.2,0.3,-0.8,-2.7%,u
CC(=O)Nc1ccc2c(c1)nc(C)n2Cc1ccccc1,x,-0.2,x,x,2.9
Cc1cccc(C(=O)Oc2coc(CSc3nnc(NC(=O)C4CC4)s3)cc2=O)c1,-21.0,1.6,-3.9,x,5.8
Nc1c(S(=O)(=O)c2cccs2)c2nc3ccccc3nc2n1/N=C/c1cccc(O)c1,-29.2,-3.2,-28.8,0.7%,-3.8
O=c1oc2cc(OCc3ccc([N+](=O)[O-])cc3)ccc2c2c1CCCC2,-20.5,3.5,9.0,-2.1%,10.7

Further structures follow:
molecule,YopH PTP inh,RecA intein inh,Arbovirus anti,Mtb growth,Mtb betalactam
CN(c1ccccc1)c1nc(N)c([N+](=O)[O-])c(NCc2ccccc2)n1,x,0.1,x,12.4%,7.0
C=CCN1C(=O)CSC1=Nc1ccc(C(=O)O)cc1,x,0.5,x,x,-12.7
N#Cc1c(-c2ccc(Br)cc2)cc(-c2cccnc2)nc1N,-20.7,-6.7,1.6,4.5%,7.5
CCOc1ccc(NC(=O)CC2C(=O)N(C)C(=S)N2CCCc2ccccc2)cc1 (stereo unspecified),-14.6,4.4,-21.8,8.4%,20.5
Cc1[nH]c(=O)[nH]c(=O)c1S(=O)(=O)Nc1cccc([N+](=O)[O-])c1C,x,-0.1,x,x,4.1
CC(CNC(=O)c1ccc(OC2CCN(Cc3ccccn3)CC2)cc1)c1ccccc1 (stereo unspecified),x,0.2,x,x,5.4
CCOC(=O)C1CCN(CC(=O)Nc2c(C(=O)OC)n(C)c3cccc(C)c23)CC1,-43.5,-8.5,-5.4,-0.4%,-9.8
S=C(Nc1ccccc1)Nc1cccc(Cl)c1Cl,x,1.4,-3.2,-5.9%,-0.4
CCN1CCN(c2ccc(N)cc2C)CC1,x,-2.4,-2.4,-5.7%,-15.4
CC1=C(C#N)C(NC(=O)C(C)(C)C)(C(F)(F)F)C(=O)N1 (stereo unspecified),-5.7,-1.2,1.3,-1.6%,-9.2
CCC(=O)Nc1nnc(-c2ccc(Cl)s2)o1,x,-1.4,5.4,13.6%,9.8
O=C(Nc1ccc(-c2cn3ccsc3n2)cc1)C1COc2ccccc2O1 (stereo unspecified),-37.8,-1.2,15.2,9.8%,65.2
COc1cccc(OCc2nc3ccccc3[nH]2)c1,-37.4,3.0,-7.6,1.5%,1.5
Cc1cc2ccccn2c1C(=O)c1ccc(Cl)c([N+](=O)[O-])c1,x,3.1,1.1,6.2%,-0.9
S=c1[nH]nc(CSCc2ccccc2Cl)n1-c1ccccc1,6.2,4.4,7.0,-1.9%,-19.7
CCCc1cc(=O)[nH]c(SCC(=O)c2cc(C)n(C(C)COC)c2C)n1 (stereo unspecified),-19.2,2.9,5.7,-10.1%,-6.6
CCC(=O)NC(=S)NNC(=O)c1ccc(O)cc1,x,8.5,-1.0,-0.8%,-3.0
COC(=O)c1ccc(C(=O)OC)c(NC(=O)/C=C/C(=O)O)c1,x,-3.7,x,-0.1%,-2.0

Exported as labelled records: 2 of the compounds above
CCC(=O)NC(=S)NNC(=O)c1ccc(O)cc1
  YopH PTP inh: x
  RecA intein inh: 8.5
  Arbovirus anti: -1.0
  Mtb growth: -0.8%
  Mtb betalactam: -3.0

COC(=O)c1ccc(C(=O)OC)c(NC(=O)/C=C/C(=O)O)c1
  YopH PTP inh: x
  RecA intein inh: -3.7
  Arbovirus anti: x
  Mtb growth: -0.1%
  Mtb betalactam: -2.0

Screening results deposited in PubChem by several laboratories.
